# Screens from PubChem.
# NPYLR7 ag: mosquito NPYLR7 agonism. activation, % at 10 µM. HEK293T NPYLR7/Galpha15, GCaMP6s calcium fluorescence. AID 1259423. actives 0.15% (n = 270,000); in the data active = activation above about 40%;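 also: 0% = vehicle and 100% = reference agonist at the receptor; some compounds past the cut are filed as inactive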
# NPYLR7 ag max-min: also measured in NPYLR7 ag; calls as there; activation, %; measured here: Max-Min RFU normalised activation; some inactives read as strong as hits;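 span of the calcium signal over five minutes; 0% = vehicle and 100% = native peptide agonist; compound fluorescence can raise it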
# Numbers without * were called inactive; & = joins results of further samples. Not all compounds are listed; rates above refer to the full screens.
SMILES,NPYLR7 ag,NPYLR7 ag max-min
O=C(Cc1ccc(Cl)cc1)NCCc1csc2nc(-c3ccc(Cl)cc3)nn12,3,3
CC1(C(=O)NS(=O)(=O)c2cccc(C#N)c2)CCN1C(=O)CCc1ccccc1 (centres undefined),2,4
Clc1nc2c(Br)cccc2s1,-25,-27
O=C(c1cc(F)c(Cl)cc1Cl)N1CCN(S(=O)(=O)N2CCCC2)CC1,1,-2
O=C(Nc1cccc(Cl)c1)N1CCCC(OCc2ccc(F)cc2)C1 (centres undefined),-9,-6
COCC(=O)N1CCc2c(sc3[nH]c(=O)n(-c4ccccc4)c(=O)c23)C1,18,10
Cc1cc(=O)n2[nH]c(-c3ccc(C(C)(C)C)cc3)cc2n1,-14,-20
CC(c1c(F)cccc1F)S(=O)(=O)Cc1nnc(C2CCC2)o1 (centres undefined),4,3
C=c1ccccc1=C1N=C(c2ccccc2Cl)NO1,-3,-6
Cc1nn(C)c(C)c1CCC(=O)N1CC(C(N)=O)c2ccccc21 (centres undefined),-20,-22
FC(F)(F)CCc1ccnc(NCc2ccc3c(c2)OCCCO3)n1,-1,-5
O=C(NCc1ccc2c(c1)OCCO2)c1cc(Cl)ccc1Cl,-6,-8

# Reformatted with each value named: entries from further up.
C=c1ccccc1=C1N=C(c2ccccc2Cl)NO1
- NPYLR7 ag: -3
- NPYLR7 ag max-min: -6
Clc1nc2c(Br)cccc2s1
- NPYLR7 ag: -25
- NPYLR7 ag max-min: -27

# Going on with the list:
SMILES,NPYLR7 ag,NPYLR7 ag max-min
CN1C(=O)Cc2cc(C3=NNC(=NCc4ccco4)SC3)ccc21,-20,-20
CN1[C@H]2CC[C@@H]1CN(C(=O)c1ccc(N(C)S(C)(=O)=O)cc1)CC2,0,-7
Cc1cc(C)c(S(=O)(=O)N2CCN(CCO)CC2)c(C)c1,-5,-6
O=S(=O)(Nc1ccccc1)c1ccc(Cl)s1,-3,-3
O=C(NCCC(c1ccccc1)c1ccccc1)c1csc(CSc2nnc(-c3ccccc3Cl)n2-c2cccc(Cl)c2)n1,5,4
O=C(O)c1ccccc1C(=O)NNC(=O)C(c1ccccc1)c1ccccc1,1,7
Cc1cccc(CNC(=O)c2sc(=O)n(Cc3ccc(S(C)(=O)=O)cc3)c2C)c1,5,4
COCC(=O)N(Cc1csc(COc2ccccc2OC)n1)C1CC1,25,26
CSCCC(C)N(C)c1ncc(C(N)=O)cc1Cl (centres undefined),-3,-1
O=C(Cc1ccccc1)N1CCN(c2cc(Oc3ccc(F)c(F)c3)ncn2)CC1,10,9
COc1ccc(-n2c(SCc3ccc(C(=O)N4CCOCC4)cc3)nnc2-c2ccncc2)cc1,1,-2
O=C(NCc1cccs1)c1cccnc1N1CCN(C(=O)c2ccc(OC(F)F)cc2)CC1,3,-4
O=C(O)/C=C/c1nc(-c2ccccc2)n2ccccc12,0,5
CCc1nc(NC(=O)c2ccc(OC(F)F)cc2)sc1C,8,4
CCOC(=O)C1(C)CCN1C(=O)c1cc(C)oc1C (centres undefined),-4,-3
C=CCn1c(=NC(=O)c2cccc(S(C)(=O)=O)c2)sc2cc(S(C)(=O)=O)ccc21,4,1
N#CC1C(=N)Oc2c(ccc3cccnc23)C1c1ccccc1 (centres undefined),-4,1
CN(C)C(=O)CNc1nc(CSc2ccccc2)nc2sc3c(c12)CCCC3,3,-1
O=C(CNS(=O)(=O)c1cc(Br)ccc1F)N1CCCC1,-4,-7
Cc1ccc(/C=N\NC(=O)Cn2cnc([N+](=O)[O-])n2)cc1,-9,-12
COCCCN(CC(=O)N(Cc1cccn1Cc1ccc(F)cc1)C1CCCCC1)C(=O)c1ccc(OC)cc1,-8,-5
Cc1noc(C)c1CN(C)Cc1cccn1S(=O)(=O)c1ccccc1,3,2
CCC#CCN1CC(C)(C)CN(C(=O)c2ccc(OC)cc2)CC1=O,9,21
C=CCNC(=S)NN1CCN(C)CC1,9,4
O=C(O)CCCCC(CCSCc1ccccc1)SCc1ccccc1 (centres undefined),-2,-6
CC(CCc1ccccc1)NC(=O)c1cc(-c2ccccc2F)nc2cc(C(C)(C)C)nn12 (centres undefined),16&-3,25&3
CCCS(=O)(=O)N1CCN(c2nc(C)nc(COC)c2Cc2cccc(C)c2)CC1,2,9
N#Cc1ccc(-c2cccc(CNC(=O)NCc3ccon3)c2)s1,-11,-17
CNC(=O)c1nnc2n1CCN(C(=O)c1ccc(C)c(F)c1)C2,7,6
Cn1cnnc1Sc1c(NCc2ccco2)c2ccccc2[nH]c1=O,5,3
O=C(NCC1CC1)C1=CN2CCN(Cc3ccccc3)C(=O)N=C2O1,0,0
COc1ccc(-c2cc(C(=O)NCCC(c3ccccc3)c3ccccc3)n(-c3ccc(Cl)cc3)n2)c(OC)c1,0,11
CCc1nc2ccc(C(=O)NCc3ccccc3OC)cn2c1N(C)CCN1CCOCC1,2,17
CN1CCC(N(Cc2ccco2)C(=O)/C=C/c2ccncc2)CC1,15,12
COc1ccc(-c2ccc(/C=C3/SC(=S)NC3=O)o2)cc1Cl,-7,-4
Cc1ccc(CNC(=O)C(=O)NCCc2ccc(N(C)C)cc2)cc1,-8,-11
COc1ccc(C(=O)NCC2Cc3cc(Oc4ccccc4)ccc3O2)c(OC)c1 (centres undefined),19,8
CN(CCCC(=O)Nc1ccc2[nH]c(=S)oc2c1)C(=O)OC(C)(C)C,-1,-2
C#CCOCC(O)CN(Cc1ccc(OC)cc1)CC1CCCO1 (centres undefined),19,9
O=C1C(CCc2ccccc2)ON=C(c2cnccn2)N1Cc1ccc(F)cc1 (centres undefined),9,2
CN1CCN(C(c2ccncc2)c2ccc3cccnc3c2O)CC1 (centres undefined),13,12
Cc1ccccc1COc1cn(CC(=O)Nc2ccc(F)cc2)c(CO)cc1=O,11,10
CCOCc1cc(CN2CCN(CCC(C)C)C(CCO)C2)ccc1OC (centres undefined),1,-5
CSc1ccccc1C(=O)NCc1c(C)ncc2c1CCN(C(=O)c1cc3ccccc3o1)C2,5,6
C=CCN(Cc1cn(C)nc1-c1ccc(C2CCCCC2)cc1)C1CCS(=O)(=O)C1 (centres undefined),2,-3
COC(=O)[C@]1(C)C[C@H](C(=O)N(C)Cc2ncc(C)[nH]2)[C@H](c2ccccc2)N1C,5,1
COC(=O)c1ccc2c(c1)CC(CNC(=O)c1cc(OC)c(OC)c(OC)c1)O2 (centres undefined),0,-1
COc1ccc(F)cc1C(=O)N(C)C,13,10
Cc1ccc(C)c(CN(Cc2ccc3c(c2)OCO3)CC(C)O)c1 (centres undefined),6,20
COCc1cn([C@H]2CO[C@H]3[C@@H]2OC[C@@H]3NC(=O)N2CCOCC2)nn1,-8,-13
c1ccc(COC2CCN(Cc3ccco3)CC2)cc1,6,5
COc1cc(S(=O)(=O)Nc2ccccc2F)c(OC)cc1Cl,4,3
CCOCCCC(=O)NC(c1ccccc1C)C(C)(C)C (centres undefined),0,-1
O=C(Cc1csc(Nc2ccc(F)cc2)n1)NCC1CCCO1 (centres undefined),12,4
COCC(=O)Nc1ccc(N(C)C)c(CN(CC2CCCO2)C(=O)NC(C)C)c1 (centres undefined),-10,-3
C[C@@H]1CCN(C(=O)CC#N)C[C@@H]1N(C)c1ncnc2[nH]ccc12,-8&0,-12&-5
CC1Cc2cc(-c3cc(CNC(=O)Cc4noc5ccccc45)no3)ccc2O1 (centres undefined),-1,-1
O=C(NCCCN1CCCC1)C1CC(=O)N(C2CCCC2)C1 (centres undefined),4,2
O=C(Nc1ccc(Cl)cc1)Nc1ccc(I)cc1F,1,0
CN(Cc1cc2cc(F)ccc2[nH]1)Cc1nc(C(c2ccccc2)c2ccccc2)no1,4,1
# Following part:
SMILES,NPYLR7 ag,NPYLR7 ag max-min
O=C(Nc1cc(C(F)(F)F)cc(C(F)(F)F)c1)c1cccn(OCc2ccccc2)c1=O,11,8
COc1ccc(N2CCN(C3CCCNC3)CC2)cc1 (centres undefined),-2,-2
Cc1ccc(C(=O)Nc2ccc(C(=O)NCC(N)=O)cc2)cc1Cl,0,-5
Cc1ccc(C2c3c(oc4cc(C)c(C)cc4c3=O)C(=O)N2c2cc(C)on2)cc1 (centres undefined),5,2
Cc1ccccc1CC(=O)N1CCC(n2nccc2NC(=O)CCOc2ccccc2)CC1,-1,-4
Cc1ccccc1-n1nc2c(c1NC(=O)c1ccc(N3C(=O)CCC3=O)cc1)CSC2,8,13
CN1C(=O)CC(C(=O)Nc2ccccc2F)SC1=Nc1ccccc1 (centres undefined),1,-2
Cn1cnnc1C1CCCN(c2ncnc3ccccc23)C1 (centres undefined),1,1
Cc1cc(C)c(-c2csc(NC(=O)CCc3c(C)nc4nc(N)nn4c3C)n2)c(C)c1,2,3
CC(Cn1cncn1)NCc1nc2cc(C(C)(C)C)ccc2o1 (centres undefined),14,9
COCCCn1c(C(=O)Nc2ccccc2C(N)=O)cc2c(=O)n(C)c(=O)n(C)c21,-1,-3
COc1ncc(CN2CCC3(CCCN(CCC4CCCCC4)C3=O)C2)cn1 (centres undefined),0,-3
Cc1ccc2n1CCN(C(=O)c1ccc(-n3cncn3)c(F)c1)C2C (centres undefined),7,2
COc1ccccc1-c1cc(C(=O)N2CCC(C)CC2)n2nc(-c3ccccc3)cc2n1,6&-10,10&-5
CCN(C(=O)Cn1cc([N+](=O)[O-])ccc1=O)C1CCS(=O)(=O)C1 (centres undefined),0,-4
C=CCc1cccc(C=Nc2ccc3nc[nH]c3c2)c1O,-11,-18
CCc1nc2n(n1)C(=O)C(C(c1ccccc1)N1CCOCC1)S2 (centres undefined),-4,-8
CCCc1c(C)nn(-c2ccc(C(=O)NC3CCCC(C)C3)cc2)c1C (centres undefined),-6,-11
Cc1ccc(CN2C(=O)C(C)ON=C2c2ccccc2F)cc1 (centres undefined),5,2
COc1ccc(C=C2N=C(c3cccc(F)c3)OC2=O)cc1,3,1
COc1ccccc1OCCOc1ccccc1OC,-1,0
CC(NC(=O)c1ccc(-c2cc(-c3cccc4ccccc34)[nH]n2)cc1)c1ccc(Br)cc1 (centres undefined),-1,0
COc1cccc(-n2c(N)c(C#N)c3nc4ccccc4nc32)c1,8,12
CN(C)CCN(C(=O)CN1C(=O)c2ccccc2C1=O)c1nc2ccc(Cl)cc2s1,-8,-11
O=C(NCCn1ncc2c(=O)n(Cc3ccccc3)cnc21)c1ccc(Br)o1,20,10
C=CCn1cc(CN(C)C(C)c2ccon2)c(C)n1 (centres undefined),5,4
COCC(NC(=O)C(=O)N1CCc2ccccc2C1)c1ccnn1C (centres undefined),9,7
[O-][n+]1onc2c1CCc1nnccc1-2,-10,-16
Cc1ccccc1CN1CCC(CNC(=O)Cc2cccnc2)C1 (centres undefined),3,1
N#Cc1ccc(Oc2cccc(C(=O)O)c2)cc1,-6,-8
Cc1ccc(S(=O)(=O)Nc2cc(Br)cn(C)c2=O)c(F)c1,3,-11
COc1ccc(C(C)C)cc1-c1cnc2[nH]c(=O)n([C@H](C)c3ccccc3)c2n1,-6,-10
COc1cc(OC)cc(C(=O)N(Cc2ccco2)Cc2cc3c(cc2Cl)OCO3)c1,-3,-5
COCc1nnc(NC(=O)CN2CCCC3(C2)CN(C)C(=O)O3)s1 (centres undefined),1,-3
Cn1ccnc1CC(NC(=O)c1cccc(Cl)c1Cl)c1ccccc1 (centres undefined),0,-1
CCOC(=O)CCNC(=O)C1(c2cccc(C)c2)CC1,-7,-7

# 18 of the compounds above, with tabs:
Molecule	NPYLR7 ag	NPYLR7 ag max-min
Cc1ccc(CN2C(=O)C(C)ON=C2c2ccccc2F)cc1 (centres undefined)	5	2
COc1ccc(C=C2N=C(c3cccc(F)c3)OC2=O)cc1	3	1
COc1ccccc1OCCOc1ccccc1OC	-1	0
CC(NC(=O)c1ccc(-c2cc(-c3cccc4ccccc34)[nH]n2)cc1)c1ccc(Br)cc1 (centres undefined)	-1	0
COc1cccc(-n2c(N)c(C#N)c3nc4ccccc4nc32)c1	8	12
CN(C)CCN(C(=O)CN1C(=O)c2ccccc2C1=O)c1nc2ccc(Cl)cc2s1	-8	-11
O=C(NCCn1ncc2c(=O)n(Cc3ccccc3)cnc21)c1ccc(Br)o1	20	10
C=CCn1cc(CN(C)C(C)c2ccon2)c(C)n1 (centres undefined)	5	4
COCC(NC(=O)C(=O)N1CCc2ccccc2C1)c1ccnn1C (centres undefined)	9	7
[O-][n+]1onc2c1CCc1nnccc1-2	-10	-16
Cc1ccccc1CN1CCC(CNC(=O)Cc2cccnc2)C1 (centres undefined)	3	1
N#Cc1ccc(Oc2cccc(C(=O)O)c2)cc1	-6	-8
Cc1ccc(S(=O)(=O)Nc2cc(Br)cn(C)c2=O)c(F)c1	3	-11
COc1ccc(C(C)C)cc1-c1cnc2[nH]c(=O)n([C@H](C)c3ccccc3)c2n1	-6	-10
COc1cc(OC)cc(C(=O)N(Cc2ccco2)Cc2cc3c(cc2Cl)OCO3)c1	-3	-5
COCc1nnc(NC(=O)CN2CCCC3(C2)CN(C)C(=O)O3)s1 (centres undefined)	1	-3
Cn1ccnc1CC(NC(=O)c1cccc(Cl)c1Cl)c1ccccc1 (centres undefined)	0	-1
CCOC(=O)CCNC(=O)C1(c2cccc(C)c2)CC1	-7	-7

# More results:
SMILES,NPYLR7 ag,NPYLR7 ag max-min
O=C1C2C3C=CC(CNc4ccccc4)(O3)C2C(=O)N1c1ccccc1 (centres undefined),-4,-4
O=S(=O)(N1CCc2ccccc2C1)N1CCCC1Cn1ccnc1 (centres undefined),5,6
Cc1ccc(-n2c(Cc3c(C)n[nH]c3C)n[nH]c2=O)cc1C,10,8
CN(C)CC(=O)Nc1sc2c(c1C#N)CCCC2,-4,-9
Cc1c(NCc2cccnc2)cccc1C(=O)NCc1ccc2nonc2c1,10,13
CC1(C(=O)NCc2ccc(F)c(F)c2)Cc2c(-c3ccccc3)ccnc2O1 (centres undefined),-3,-4
CC(C)(C)c1cc(N=CCc2nnnn2-c2ccc3ccccc3c2)no1,6,8
CC(C)Nc1ccc(C(=O)N2CCCCC2)cn1,-10,-15
CC1(Cc2ccc(F)c(Cl)c2)C(=O)Nc2ccc(-c3ccncc3)cc21 (centres undefined),3,1
COc1cccc(C(=O)Nc2ccc(-n3nc(OCc4ccc(F)cc4)nc3-c3ccccc3F)cc2)c1,-10,-7
CCCN(CC1CC1)c1nc(C)nc(Nc2c(Cl)cc(Cl)cc2Cl)c1Cl,-4,-26
Cc1ccc(-c2nc3scc(CCNS(=O)(=O)c4ccc5ccccc5c4)n3n2)cc1,-8,-7
